Rango release inh: qHTS Assay for Inhibitors of RanGTP induced Rango (Ran-regulated importin-beta cargo) - Importin beta complex dissociation | Snurportin-1 (Homo sapiens) + GTP-binding nuclear protein Ran (Homo sapiens) + Importin … | Biochemical FRET Rango-importin beta, RanGTP-induced dissociation | Potency, µM (doses to about 46.1 µM), without a hit: at the highest dose activity change, negative = inhibition | actives 0.071% (n = 340,000) | AID 540253, 2011; active means falling FRET ratio curve, often poorly fitted, with flat reads before Ran was added; inconclusive means other falling curves, or compound fluorescence or quenching; inactive means flat or rising ratio curve;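 further: potency means the concentration at half of the fitted maximal effect; % of control where 0% means no effect; nearly all actives have a fitted effect of over 45% in size; -100% = wells without RanGTP and RCC1; the record marks most hits as doubtful in a second field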
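FRET read at 45 min, room temperature: inhibitors block the CFP/YFP signal rise when RanGTP (0.6 uM Ran, 2 mM GTP, 0.2 uM RCC1) frees Rango (0.1 uM) from importin beta (0.25 uM). Pre-read after 5 min compound exposure flags interference.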
Rango-impB inh: qHTS Assay for Inhibitors of Rango (Ran-regulated importin-beta cargo) - Importin beta complex formation; Importin subunit beta-1 (Homo sapiens), Q14974; Rango CFP/YFP FRET sensor + importin beta, 45 min; Potency, µM (top dose mostly 92.2 µM), without a hit: at the highest dose inhibition of complex formation; actives 0.031% (n = 340,000); active = rising FRET ratio curve, often small or poorly fitted; inconclusive = mostly compound fluorescence or quenching in the first reads; inactive = flat curves in all reads;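 further: potency means the concentration at half of the fitted maximal effect; 0% = DMSO wells and 100% = buffer wells lacking importin beta; nearly all actives have a fitted effect of over 15% in size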
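FRET biosensor (snurportin 1 IBB flanked by EYFP and cerulean), 50 nM, with compound 5 min, then 0.125 microM importin beta in PBS, 1 mM DTT, 0.02% Tween-20, 0.1% BSA. CFP/YFP ratio read after 45 min at room temperature; pre-read flags interference.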
GLA inh pH 4.5: qHTS Assay for Inhibitors of Human alpha-Galactosidase at pH 4.5; purified enzyme, 4-MU-alpha-Gal fluorescence, pH 4.5; activity change, negative = inhibition, % at 105 µM; 230,000 tested, under 10 active; AID 1467, 2008; inconclusive = small, poorly fitted or top-dose-only inhibition, or a rising curve; inactive = flat fitted curve, though single readings scatter; no compound was filed as active;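 further: 0% = full activity with enzyme and -100% = basal without enzyme; dose as in the result columns while the protocol names 77 µM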
Target sequence (P06280 whole entry, looked up): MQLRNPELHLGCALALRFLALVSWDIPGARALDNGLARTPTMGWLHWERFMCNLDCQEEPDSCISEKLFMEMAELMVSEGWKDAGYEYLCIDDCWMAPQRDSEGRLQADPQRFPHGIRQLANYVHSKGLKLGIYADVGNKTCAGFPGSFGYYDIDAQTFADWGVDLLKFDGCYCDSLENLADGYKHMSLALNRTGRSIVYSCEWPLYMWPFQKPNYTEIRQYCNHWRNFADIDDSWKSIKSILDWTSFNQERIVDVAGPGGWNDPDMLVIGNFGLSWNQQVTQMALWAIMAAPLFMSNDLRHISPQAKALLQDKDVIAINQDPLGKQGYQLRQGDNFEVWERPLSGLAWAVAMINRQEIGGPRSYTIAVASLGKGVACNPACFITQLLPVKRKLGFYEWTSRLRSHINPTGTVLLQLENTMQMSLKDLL
miR-21 reporter: qHTS Assay for Modulators of miRNAs and/orActivators of miR-21. Potency, µM (top dose mostly 38.3 µM), inactives show top-dose reporter change, positive = more light. 340,000 tested, under 10 active. HeLa miR-21 FLuc reporter, luciferase, 48 h; active = well fitted rising curve with a large enough effect; inconclusive = small, poorly fitted or top-dose-only effect; inactive = no such curve, though single readings can be large or run the other way;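 further: % of control where 0% means no effect; miR-21 action dims this reporter so a rising signal means less miR-21 action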
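Using DMEM plus 10% FBS, HeLa miR-21-FLuc cells are incubated with test compounds (final up to about 40uM) for 48 hours; firefly luciferase signal is then imaged following reagent-mediated lysis.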
The depositor's hits bear a star; & = joins results of further samples; [ ] = dose if it differs, or a comment. A portion of the library. The share of hits here may be higher or lower than overall.

O=C(CSc1nnc(-c2ccccc2)o1)Oc1ccc(Br)cc1 was read as Rango release inh -6.9%, Rango-impB inh -0.9%, GLA inh pH 4.5 -0.3 and miR-21 reporter 0.5%.
For Cc1ccc(S(=O)(=O)N(C)C)cc1NC(=O)COC(=O)CNC(=O)c1cccs1 the results were Rango release inh 2.4% and Rango-impB inh inconclusive.
For CCS(=O)(=O)N1CCC(NC(=O)C(Cc2cccc(OC)c2OC)NC(C)=O)CC1 (centres undefined) the results were Rango release inh inconclusive, Rango-impB inh -1.9% and miR-21 reporter 0.8%.
For CCOC(=O)c1ccc(NC(=O)CSc2nc(N)c(NC(=O)c3ccc(Br)o3)c(=O)[nH]2)cc1 the results were Rango release inh 2.6%, Rango-impB inh 0.8% and miR-21 reporter -2.0%.
Screening Cn1c(=O)cc(OCC(=O)NCc2cccnc2)c2ccccc21 returned Rango release inh -3.9%, Rango-impB inh -2.9%, GLA inh pH 4.5 10.0 and miR-21 reporter -0.4%.
For CC(=O)C[C@H]1c2cc(C(F)(F)F)ccc2S(=O)(=O)N1C1CCCCC1 the results were Rango release inh -11.0% and Rango-impB inh -3.9%.
Screening O=c1c2ccc(Cl)cc2nc(-c2cccc(C(F)(F)F)c2)n1O returned Rango release inh -4.2%, Rango-impB inh 1.9%, GLA inh pH 4.5 3.2 and miR-21 reporter inconclusive.
For CCOC(=O)[C@@H]1[C@H]2COc3cc(OC)ccc3[C@H]2N2C(=O)N(c3ccccc3)C(=O)[C@]12C the results were Rango release inh -10.0% and Rango-impB inh 1.9%.
Screening CN(C(=O)CSc1nc(N)nn1-c1ccccc1)c1ccccc1 returned Rango release inh 7.1%, Rango-impB inh -1.8%, GLA inh pH 4.5 -11.9 and miR-21 reporter -2.2%.
Screening CCOC(=O)C(=O)Nc1ccccc1C(=O)NCc1ccccc1 returned Rango release inh -15.8%, Rango-impB inh 1.8%, GLA inh pH 4.5 9.4 and miR-21 reporter -17.2%.
CC(C)CNC(=S)N1CCN(c2nc(-c3ccc(Cl)cc3)cs2)CC1 was read as Rango release inh 16.9%, Rango-impB inh 0.4% and miR-21 reporter 27.3%.
For Cc1cc(C)c2sc(NNC(=O)C3COc4ccccc4O3)nc2c1 (centres undefined) the results were Rango release inh 7.0%, Rango-impB inh -0.6%, GLA inh pH 4.5 0.1 and miR-21 reporter 2.3%.

Looked up by structure from the list above (6):
Screening CCOC(=O)C(=O)Nc1ccccc1C(=O)NCc1ccccc1 returned Rango release inh -15.8%, Rango-impB inh 1.8%, GLA inh pH 4.5 9.4 and miR-21 reporter -17.2%.
For CCS(=O)(=O)N1CCC(NC(=O)C(Cc2cccc(OC)c2OC)NC(C)=O)CC1 (centres undefined) the results were Rango release inh inconclusive, Rango-impB inh -1.9% and miR-21 reporter 0.8%.
CC(C)CNC(=S)N1CCN(c2nc(-c3ccc(Cl)cc3)cs2)CC1 was read as Rango release inh 16.9%, Rango-impB inh 0.4% and miR-21 reporter 27.3%.
For CCOC(=O)[C@@H]1[C@H]2COc3cc(OC)ccc3[C@H]2N2C(=O)N(c3ccccc3)C(=O)[C@]12C the results were Rango release inh -10.0% and Rango-impB inh 1.9%.
Screening CN(C(=O)CSc1nc(N)nn1-c1ccccc1)c1ccccc1 returned Rango release inh 7.1%, Rango-impB inh -1.8%, GLA inh pH 4.5 -11.9 and miR-21 reporter -2.2%.
For CC(=O)C[C@H]1c2cc(C(F)(F)F)ccc2S(=O)(=O)N1C1CCCCC1 the results were Rango release inh -11.0% and Rango-impB inh -3.9%.

Carrying on.
Screening COc1ccc(OC)c(NC(=O)c2ccc(NC(C)=O)cc2)c1 returned Rango release inh 2.7%, Rango-impB inh -1.5%, GLA inh pH 4.5 -13.0 and miR-21 reporter -7.0%.
For COc1cccc(NC(=O)CSc2nnc(Cn3c(=O)sc4ccccc43)n2C)c1 the results were Rango release inh 0.2%, Rango-impB inh -1.0%, GLA inh pH 4.5 4.1 and miR-21 reporter -15.1%.
For O=C(CCSCCc1ccccn1)Nc1ccc(Br)cn1 the results were Rango release inh 7.3%, Rango-impB inh -2.9%, GLA inh pH 4.5 6.1 and miR-21 reporter -1.8%.
For O=S(=O)(c1ccccc1)c1nc(Nc2cccc(O)c2)sc1Cl the results were Rango release inh -13.2%, Rango-impB inh -0.6%, GLA inh pH 4.5 -7.2 and miR-21 reporter 12.4%.
`N#Cc1c(N(CCO)CCO)nc(N)c2c(N)nc3c(c12)CC(=O)N3Cc1cccs1` gave Rango release inh inconclusive, Rango-impB inh inconclusive, GLA inh pH 4.5 -1.7 and miR-21 reporter -5.5%.
`COc1cc(/C=N/NC(=O)c2cccc(NC(=O)c3ccccc3Cl)c2)ccc1O` gave Rango release inh 11.0%, Rango-impB inh -0.9%, GLA inh pH 4.5 0.4[21.1 µM] and miR-21 reporter -0.2%.
NC(=O)c1ccc(NC(=O)COC(=O)CCCc2c[nH]c3ccccc23)cc1 was read as Rango release inh 5.7%, Rango-impB inh 1.2%, GLA inh pH 4.5 2.7 and miR-21 reporter 0.2%.
O=C(CCC(=O)OCC(=O)c1ccc(F)cc1)NC1CCCCC1 was read as Rango release inh 6.3%, Rango-impB inh -1.8%, GLA inh pH 4.5 3.4 and miR-21 reporter 1.3%.
CCC(CO)n1c(SCc2cc(=O)oc3cc(C)ccc23)nc2ccccc2c1=O (centres undefined) was read as Rango release inh -4.0%, Rango-impB inh 0.2%, GLA inh pH 4.5 -22.2 and miR-21 reporter -14.3%.
CC(=O)OC(C(=O)NC1CCCCC1)c1ccc(Cl)c(Cl)c1 (centres undefined) was read as Rango release inh 1.1%, Rango-impB inh -3.1%, GLA inh pH 4.5 1.7 and miR-21 reporter -0.9%.
For O=c1[nH]c(-c2ccccc2Cl)nc2c1sc(=S)n2-c1ccccc1 the results were Rango release inh -8.4%, Rango-impB inh -2.0%, GLA inh pH 4.5 2.0 and miR-21 reporter 0.7%.
CC1CN(c2cc(=O)n(-c3ccc(Cl)cc3)c(=O)[nH]2)CC(C)O1 (centres undefined) was read as Rango release inh 4.0%, Rango-impB inh 0.6%, GLA inh pH 4.5 -0.6 and miR-21 reporter 0.4%.
`Cc1cccc(CN(C)C)c1CC(O)(c1ccccc1)c1ccccc1` gave Rango release inh 0.1% and Rango-impB inh -4.2%.
`C/C=C/COc1nc2c(c(=O)n(C)c(=O)n2C)n1C` gave Rango release inh -13.7%, Rango-impB inh 1.5%, GLA inh pH 4.5 4.9 and miR-21 reporter 0.5%.
`COc1ccc(OC)c(S(=O)(=O)Nc2c(F)cccc2F)c1` gave Rango release inh 11.9%, Rango-impB inh -3.5%, GLA inh pH 4.5 8.2 and miR-21 reporter 1.2%.
Screening O=C(CNS(=O)(=O)c1ccccc1)N1CCCC1 returned Rango release inh 0.4%, Rango-impB inh 0.2%, GLA inh pH 4.5 7.8 and miR-21 reporter 0.0%.
`CCC(NC(=O)c1cccc(Cn2cc([N+](=O)[O-])cn2)c1)c1ccc(C(C)C)cc1` (centres undefined) gave Rango release inh -0.6%, Rango-impB inh 4.7%, GLA inh pH 4.5 -7.1 and miR-21 reporter 11.9%.
For Cc1ccc(CNC(=O)CCn2ccc3cc(S(=O)(=O)N4CCCC4)ccc32)cc1 the results were Rango release inh -0.7%, Rango-impB inh -0.4% and miR-21 reporter 6.6%&5.0%.
`O=C(NC1=NCCS1)c1cccc(NC(=O)c2ccco2)c1` gave Rango release inh 0.7%, Rango-impB inh 0.2%, GLA inh pH 4.5 -0.9 and miR-21 reporter -9.8%.
For Cc1ccc(/C=N/NC(=O)c2ccccc2OCc2cccc(Br)c2)o1 the results were Rango release inh -2.3%, Rango-impB inh 3.7%, GLA inh pH 4.5 -0.1 and miR-21 reporter 16.3%.
Screening CCn1c(=O)cc(SCC(=O)Nc2ccc(OC)c(OC)c2)c2ccccc21 returned Rango release inh 0.9%, Rango-impB inh -0.4%, GLA inh pH 4.5 4.1 and miR-21 reporter 20.6%.
Screening O=C(NN1C(=O)c2ccccc2C1=O)c1ccncc1 returned Rango release inh 10.0%, Rango-impB inh 4.7%, GLA inh pH 4.5 7.5 and miR-21 reporter -0.8%.
CC(=O)N1CCC2(CC1)CC(=O)c1cc(OCC(=O)N3CCCC3)ccc1O2 was read as Rango release inh -9.1%, Rango-impB inh -3.5%, GLA inh pH 4.5 21.6 and miR-21 reporter -2.6%.
For O=C(CCC(=O)N/N=C/c1c[nH]c2ccccc12)NCc1ccccc1 the results were Rango release inh 2.3%, Rango-impB inh -2.6%, GLA inh pH 4.5 3.3 and miR-21 reporter -2.8%.
Screening O=C(Nc1nc2nc(-c3ccccc3)cc(-c3ccccc3)n2n1)c1ccco1 returned Rango release inh -18.3%, Rango-impB inh inconclusive, GLA inh pH 4.5 -3.6 and miR-21 reporter 2.8%.
For CCn1c(NCc2ccc(OC)cc2)nc2ccccc21 the results were Rango release inh 0.2%, Rango-impB inh -5.1% and miR-21 reporter -37.5%&-32.5%.
N#Cc1ccc(NC(=O)CSc2cn[nH]n2)cc1 was read as Rango release inh -17.3%, Rango-impB inh -0.6% and miR-21 reporter 6.6%.
CN(C)c1ccc(CNC(=O)CCS(=O)(=O)c2ccc3c(c2)n(C)c(=O)c(=O)n3C)cc1 was read as Rango release inh -15.5%, Rango-impB inh -4.5% and miR-21 reporter 0.1%.
For c1ccc(NC2=NCCN2CC2CCCC2)cc1 the results were Rango release inh inconclusive, Rango-impB inh -1.8% and miR-21 reporter -0.5%.
For CCN(CC)S(=O)(=O)c1ccc2[nH]cc(C(=O)NC3CC3)c(=O)c2c1 the results were Rango release inh -7.1%, Rango-impB inh 0.0% and miR-21 reporter 6.3%.
COCCN(CCOC)Cc1c(C)[nH]c2c(C)c(C)ccc2c1=O was read as Rango release inh -10.7%, Rango-impB inh -0.6%, GLA inh pH 4.5 -0.6 and miR-21 reporter 4.3%.
`CCOC(=O)c1c[nH]c2ccc3ccccc3c2c1=O` gave Rango release inh 8.0%, Rango-impB inh 1.4% and miR-21 reporter -5.1%.
Screening CCN(CC)S(=O)(=O)c1cccc(-c2nnc(SCCCC(=O)c3ccc(F)cc3)o2)c1 returned Rango release inh -13.5%, Rango-impB inh -0.3%, GLA inh pH 4.5 3.5 and miR-21 reporter 3.8%.
`Cc1ccc(-n2c(COc3cccc(C)c3)n[nH]c2=S)cc1` gave Rango release inh -4.0%, Rango-impB inh -1.3%, GLA inh pH 4.5 -28.5 and miR-21 reporter -8.6%.
Cc1ccc(C)c(-c2cc(C(=O)N/N=C/c3cccnc3)c3ccccc3n2)c1 was read as Rango release inh 7.1%, Rango-impB inh 1.2% and miR-21 reporter 0.1%.
Cc1ccc(C2(c3ccccc3)NC(=O)N(CC(=O)NC3CCCCC3)C2=O)cc1C (centres undefined) was read as Rango release inh -17.8% and Rango-impB inh 0.0%.
Screening COc1ccc(-n2c(SCC(=O)Nc3ccccc3)nnc2-c2ccc(NS(=O)(=O)c3ccc(C)cc3)cc2)cc1 returned Rango release inh 8.4%, Rango-impB inh 0.3%, GLA inh pH 4.5 -17.6 and miR-21 reporter -5.0%.
Screening O=C(CC(NC(=O)OCc1ccccc1)C(=O)OCc1ccccc1)OCc1ccccc1 (centres undefined) returned Rango release inh 1.2% and Rango-impB inh -3.5%.
Screening CNC(=O)c1nnc(Cc2ccc(Cl)cc2)o1 returned Rango release inh inconclusive, Rango-impB inh 2.9%, GLA inh pH 4.5 -17.7 and miR-21 reporter -4.9%.
For COc1cc(NC(=O)COC(=O)c2cnccn2)c(C)cc1[N+](=O)[O-] the results were Rango release inh 12.7%, Rango-impB inh 2.0%, GLA inh pH 4.5 -10.0 and miR-21 reporter -6.5%.
Screening Cc1n[nH]c(=O)n1-c1ccc(Oc2ccccc2)cc1 returned Rango release inh 10.3%, Rango-impB inh 0.7%, GLA inh pH 4.5 -1.9 and miR-21 reporter -20.1%.

Compound activity from PubChem.
